Compound activity from PubChem BioAssay.
Mtb hypoxia inh: PubChem AID 1159583; M. tuberculosis hypoxia-regulated fluorescent reporter, fluorescence; fluorescence inhibition, % (concentration not given with the values); 300,000 tested, 0.1% active;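 active = 35 to 45% if threefold the growth effect, above 45% if 1.5-fold the growth effect; inactive = the rest, general growth blockers included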;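 also: wells of about 50 µL received 100 nL stock; 0% = vehicle wells and 100% = reference inhibitor wells; whole bacteria with a GFP reporter of the hypoxia response; strong numbers were not always called active; many hits fall short of the cut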
PrP UTR inh: inhibition of PrP 5' UTR reporter expression | 340,000 tested, 0.35% active | AID 488862, 2010 | cell-based PrP 5' UTR mRNA reporter, plate reader | inhibition, % (test concentration not listed);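 active = every replicate at 50% or more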;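 also: 0 = median of the neutral control wells; tested in H4 reporter cells; numbers are from one replicate; inactives centre near -14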
Sa RN4220 lethal: growth inhibition of S. aureus RN4220, primary screen, OD600; 16 h; inhibition, % (no concentration beside the values); 330,000 tested, 0.33% active; AID 1259311, 2017;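 active = z-score of -3 or lower and OD600 up to 0.18 on both plates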;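 also: plate controls were untreated cells for no effect and reference antibiotic for full effect; stock transfer was 100 nL into about 80 µL; one replicate is shown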
Bead autofluor: counter-screen for toxin protease inhibitors: compound fluorescence; compound autofluorescence counterscreen, microsphere flow cytometry; stronger effect = higher value; fluorescence intensity (concentration not given with the values); 360,000 tested, 3.1% active; AID 624483;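 active = at least 3 SD above the mean of all compounds, about 16000 in these data; inconclusive = too few beads counted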;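 also: 100 nL of 1 mM stock went into each well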
ugtP null kill: growth inhibition of ugtP-null S. aureus, primary screen, RN4220 ugtP deletion, OD600; 16 h; some inactives read as strong as hits; 330,000 tested, 0.54% active; growth inhibition, % (concentration not given with the values);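 active = z-score under -3 and OD600 up to 0.15 on both plates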;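 also: plate controls were untreated wells for no effect and antibiotic for full effect; wells of about 80 µL received 100 nL stock; the first replicate is given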
BJeLR lethal: MLPCN primary cell-based screen for lethality selective to Ras in HRASV12 cells | inhibition, % (concentration not given with the values) | BJeLR (HRASV12) viability, CellTiter-Glo ATP luminescence, 48 h; reference of the scale not given here | 300,000 tested, 0.17% active | AID 1554, 2009;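 active = replicate mean above 50%; inconclusive = above 50% but judged a plate artefact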;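 also: 50 nL library stock added to about 25 µL; numbers are from one replicate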
Mtb hypoxia inh growth: recorded beside Mtb hypoxia inh, whose call it bears; growth inhibition, %; measured here: M. tuberculosis growth (absorbance);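 0% = vehicle and 100% = reference antibiotic; read after six days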
* marks the source's active call; other numbers are inactive results.

`COc1cccc2c1OCC(C(=O)NCc1ccc(Cl)cc1Cl)=C2` gave Mtb hypoxia inh 8, PrP UTR inh -13, Sa RN4220 lethal -8.9, Bead autofluor 9471, ugtP null kill -15, BJeLR lethal -4 and Mtb hypoxia inh growth 12.
Screening COc1ccc(/C=N/Nc2cc(N3CCCC3)nc(N3CCCC3)n2)cc1 returned PrP UTR inh -4, Bead autofluor 2535 and BJeLR lethal -1.
Screening Cc1oc(-c2ccccc2F)nc1CN1CCC(C(=O)NCc2cccnc2)CC1 returned Mtb hypoxia inh 13, PrP UTR inh -11, Sa RN4220 lethal 2.0, Bead autofluor 20391*, ugtP null kill -6, BJeLR lethal 0 and Mtb hypoxia inh growth 8.
`Cc1ccc(C)c(NC(=O)Cn2nc(-c3ccccc3)nc2-c2ccccc2)c1` gave Mtb hypoxia inh -3, PrP UTR inh -10, Sa RN4220 lethal -0.3, Bead autofluor 6049, ugtP null kill -3, BJeLR lethal -11 and Mtb hypoxia inh growth 9.
Screening COC(=O)C1=C(C(=O)OC)C2N(C)c3ccccc3[C@@]23CC(CO)N(C(=O)c2cccs2)C3=N1 (stereo partly drawn) returned Mtb hypoxia inh 6, Sa RN4220 lethal 3.2, ugtP null kill 3 and Mtb hypoxia inh growth 6.
Screening Cc1cc(NS(=O)(=O)c2ccccc2)cc(Cl)c1O returned Mtb hypoxia inh -2, PrP UTR inh -18, Sa RN4220 lethal 6.2, ugtP null kill -11, BJeLR lethal -1 and Mtb hypoxia inh growth 3.
Screening CCOc1ccc(-c2nn(-c3ccccc3)cc2/C=C2\SC(=S)N(C3CCS(=O)(=O)C3)C2=O)cc1 (stereo not drawn) returned Mtb hypoxia inh 19, PrP UTR inh -2, Sa RN4220 lethal 4.2, Bead autofluor 2755, ugtP null kill -3, BJeLR lethal 5 and Mtb hypoxia inh growth 2.
COc1cccc(C2N(c3ccccc3)CCN2c2ccccc2)c1OC was read as Mtb hypoxia inh 4, PrP UTR inh -18, Sa RN4220 lethal -0.4, Bead autofluor 3189, ugtP null kill 2, BJeLR lethal 8 and Mtb hypoxia inh growth 0.
CCCCOC(=O)C(C)Sc1n[nH]c(=O)[nH]c1=O (stereo not drawn) was read as Mtb hypoxia inh 0, PrP UTR inh -9, Sa RN4220 lethal 0.3, Bead autofluor 2126, ugtP null kill 13, BJeLR lethal -6 and Mtb hypoxia inh growth 1.
`CC(NC(=O)COC(=O)c1ccc([N+](=O)[O-])s1)c1ccccc1` (stereo not drawn) gave Mtb hypoxia inh 7, PrP UTR inh 1, Sa RN4220 lethal 9.5, Bead autofluor 7737, ugtP null kill -6, BJeLR lethal -22 and Mtb hypoxia inh growth 3.
For CCC(OC(=O)c1cccs1)C(=O)NCc1ccc2c(c1)OCO2 (stereo not drawn) the results were Mtb hypoxia inh 2, PrP UTR inh -13, Sa RN4220 lethal 1.0, Bead autofluor 9586, ugtP null kill 3, BJeLR lethal -5 and Mtb hypoxia inh growth 0.
For COC(=O)c1ccc(C23CC4(C2)C(CN(C)C4c2ccccc2)C3c2ccccc2)cc1 (stereo not drawn) the results were Mtb hypoxia inh 12, Sa RN4220 lethal -13, ugtP null kill 3 and Mtb hypoxia inh growth 7.
`Cc1ccc(CN=Cc2[nH]c3ccc(Br)c(Cl)c3c2O)cc1` gave Mtb hypoxia inh 6, PrP UTR inh -33, Sa RN4220 lethal 16, Bead autofluor 9614, ugtP null kill -15, BJeLR lethal -1 and Mtb hypoxia inh growth 4.
Screening CCN1C(=O)C(CC(=O)Nc2ccc(C)cc2C)Nc2cc(S(=O)(=O)N(C)C)ccc21 (stereo not drawn) returned Mtb hypoxia inh 5, PrP UTR inh -26, Sa RN4220 lethal 1.6, Bead autofluor 4159, ugtP null kill 0, BJeLR lethal -2 and Mtb hypoxia inh growth 6.
`Cc1cccn2c(=O)c(C=O)c(N3CCCCC3)nc12` gave Mtb hypoxia inh 12, PrP UTR inh 0, Sa RN4220 lethal 1.0, Bead autofluor 3627, ugtP null kill -5, BJeLR lethal 9 and Mtb hypoxia inh growth 3.
For O=S(=O)(NCCc1ccccn1)c1cccs1 the results were Mtb hypoxia inh 18, PrP UTR inh -6, Sa RN4220 lethal -5.5, Bead autofluor 3300, ugtP null kill 3, BJeLR lethal 0 and Mtb hypoxia inh growth -14.
`O=C(CSC1=Nc2ccccc2C2=NC(c3ccccc3)C(=O)N12)NC1CCCCC1` (stereo not drawn) gave Mtb hypoxia inh 21, PrP UTR inh -2, Sa RN4220 lethal 4.6, Bead autofluor 2952, ugtP null kill 9, BJeLR lethal -10 and Mtb hypoxia inh growth 21.
`CC(C)CNS(=O)(=O)c1cc(C(=O)OCC(=O)N2CCOCC2)c(Cl)cc1Cl` gave Mtb hypoxia inh 0, PrP UTR inh -6, Sa RN4220 lethal -1.0, Bead autofluor 6132, ugtP null kill -5, BJeLR lethal -6 and Mtb hypoxia inh growth -4.
CSc1nc(N2CCN(C)CC2)c2ccccc2n1 was read as Mtb hypoxia inh 1, PrP UTR inh 0, Sa RN4220 lethal 5.8, Bead autofluor 4805, ugtP null kill 2, BJeLR lethal -8 and Mtb hypoxia inh growth -8.
For CC(=NNC(=O)CNC(=O)c1ccccc1Br)c1ccco1 the results were Mtb hypoxia inh 1, Sa RN4220 lethal 0.7, ugtP null kill -1 and Mtb hypoxia inh growth -4.
`CCOc1ccc(NC(=O)C2CCCN2S(=O)(=O)c2ccc3c(c2)C(C)(C)C(=O)N3C)cc1` (stereo not drawn) gave Mtb hypoxia inh -1, PrP UTR inh -9, Sa RN4220 lethal 5.1, Bead autofluor 6776, ugtP null kill 14, BJeLR lethal -4 and Mtb hypoxia inh growth -1.
`Cc1nn(CCCC(=O)Nc2cnn(Cc3ccc(F)cc3)c2)c(C)c1[N+](=O)[O-]` gave Mtb hypoxia inh -2, PrP UTR inh 6, Sa RN4220 lethal 1.2, Bead autofluor 3454, ugtP null kill 1, BJeLR lethal 6 and Mtb hypoxia inh growth 2.
`O=C1N(c2ccccc2)C[C@@H]2C[C@@H](c3cccc4c3OCO4)N3CCC[C@@]123` gave Mtb hypoxia inh -6, PrP UTR inh 2, Sa RN4220 lethal 5.2, Bead autofluor 2956, ugtP null kill 4, BJeLR lethal -8 and Mtb hypoxia inh growth 0.
For CN(CC(=O)Nc1ccc(F)cc1)C(=O)C1CC(=O)N(Cc2ccccc2)C1 (stereo not drawn) the results were Mtb hypoxia inh 9, PrP UTR inh -28, Sa RN4220 lethal 1.3, Bead autofluor 5770, ugtP null kill 8, BJeLR lethal -4 and Mtb hypoxia inh growth -4.
For Cc1nc(N2CCN(Cc3ccc4c(c3)OCO4)CC2)c2cc(-c3ccccc3)sc2n1 the results were Mtb hypoxia inh 5, PrP UTR inh -16, Sa RN4220 lethal -3.3, Bead autofluor 4278, ugtP null kill 2, BJeLR lethal 4 and Mtb hypoxia inh growth 4.
`COc1ccc(S(=O)(=O)NNC(=O)C23CC4CC(CC(C4)C2)C3)cc1[N+](=O)[O-]` gave Mtb hypoxia inh -11, PrP UTR inh 8, Sa RN4220 lethal 2.1, Bead autofluor inconclusive, ugtP null kill 2, BJeLR lethal -9 and Mtb hypoxia inh growth -2.
Screening Cc1ccc(S(=O)(=O)/N=C(/Nc2c(C)cccc2C)c2ccccc2)cc1 returned Mtb hypoxia inh 22, PrP UTR inh -1, Sa RN4220 lethal 2.1, Bead autofluor 4072, ugtP null kill 1 and Mtb hypoxia inh growth 7.
C[C@H](CO)N1C[C@H](C)[C@@H](CN(C)C(=O)Nc2ccc3c(c2)OCO3)Oc2ccc(NC(=O)Nc3ccc4c(c3)OCO4)cc2C1=O was read as Mtb hypoxia inh -1, PrP UTR inh -21, Sa RN4220 lethal -0.3, Bead autofluor 3737, ugtP null kill 8 and Mtb hypoxia inh growth -9.
For O=c1oc(CCCO)cc2ccc(C#Cc3ccsc3)cc12 the results were Mtb hypoxia inh 1, PrP UTR inh -37, Sa RN4220 lethal 12, Bead autofluor 4128, ugtP null kill 67 and Mtb hypoxia inh growth 3.
For CCOC(=O)N1CCC(NC(=O)C2CCCN(Cc3nc(-c4ccc(CC)cc4)oc3C)C2)CC1 (stereo not drawn) the results were Mtb hypoxia inh 3, PrP UTR inh -11, Sa RN4220 lethal -1.5, Bead autofluor 3934, ugtP null kill 1, BJeLR lethal 16 and Mtb hypoxia inh growth 0.
`O=S(Cc1ccc(Cl)cc1)CC(O)COCc1ccc(Cl)cc1` (stereo not drawn) gave Mtb hypoxia inh 3, Sa RN4220 lethal 6.8, Bead autofluor 9900, ugtP null kill 1, BJeLR lethal -3 and Mtb hypoxia inh growth 3.
Cc1nn(Cc2ccccc2)c(C)c1C(=O)O was read as Mtb hypoxia inh 0, PrP UTR inh -18, Sa RN4220 lethal 8.3, Bead autofluor 3413, ugtP null kill 20, BJeLR lethal 2 and Mtb hypoxia inh growth 5.
`COc1ccc(Cc2noc(-c3ccc([N+](=O)[O-])cc3)n2)cc1OC` gave Mtb hypoxia inh 8, PrP UTR inh -7, Sa RN4220 lethal 2.3, Bead autofluor 6239, ugtP null kill 5, BJeLR lethal -4 and Mtb hypoxia inh growth 16.
Screening O=C1CC(N2CCN(c3ccc(F)cc3)CC2)C(=O)N1c1ccc(F)cc1 (stereo not drawn) returned Mtb hypoxia inh -5, PrP UTR inh -17, Sa RN4220 lethal 2.9, Bead autofluor 3441, ugtP null kill 6, BJeLR lethal -11 and Mtb hypoxia inh growth 12.
For CCN1CCN(CCOCCOc2ccccc2-c2ccccc2)CC1 the results were Mtb hypoxia inh 14, Sa RN4220 lethal 6.5, ugtP null kill 2, BJeLR lethal 2 and Mtb hypoxia inh growth 14.
For COc1ccc(C(C)=O)c(Oc2cc(NN3CCCCC3)c([N+](=O)[O-])cc2[N+](=O)[O-])c1 the results were Mtb hypoxia inh 15, PrP UTR inh 1, Sa RN4220 lethal 5.0, Bead autofluor 3201, ugtP null kill 2, BJeLR lethal 2 and Mtb hypoxia inh growth 3.
C#CCOCCOCCOCCNc1nc(N2CCN(C(=O)C([C@@H](C)CC)n3cc(C(N)Cc4ccc(O)cc4)nn3)CC2)nc(N2CCN(C(=O)[C@H](CCC(=O)O)n3cc(C(N)CO)nn3)CC2)n1 (stereo partly drawn) was read as PrP UTR inh -13, Bead autofluor 4040 and BJeLR lethal 5.
Screening CC(=O)c1sc(NC(=O)c2ccco2)nc1-c1ccccc1 returned Mtb hypoxia inh 7, PrP UTR inh -40, Sa RN4220 lethal 11, Bead autofluor 5840, ugtP null kill 18, BJeLR lethal -10 and Mtb hypoxia inh growth 4.

Among those listed so far, 4 have fluorine.
Screening Cc1oc(-c2ccccc2F)nc1CN1CCC(C(=O)NCc2cccnc2)CC1 returned Mtb hypoxia inh 13, PrP UTR inh -11, Sa RN4220 lethal 2.0, Bead autofluor 20391*, ugtP null kill -6, BJeLR lethal 0 and Mtb hypoxia inh growth 8.
`Cc1nn(CCCC(=O)Nc2cnn(Cc3ccc(F)cc3)c2)c(C)c1[N+](=O)[O-]` gave Mtb hypoxia inh -2, PrP UTR inh 6, Sa RN4220 lethal 1.2, Bead autofluor 3454, ugtP null kill 1, BJeLR lethal 6 and Mtb hypoxia inh growth 2.
For CN(CC(=O)Nc1ccc(F)cc1)C(=O)C1CC(=O)N(Cc2ccccc2)C1 (stereo not drawn) the results were Mtb hypoxia inh 9, PrP UTR inh -28, Sa RN4220 lethal 1.3, Bead autofluor 5770, ugtP null kill 8, BJeLR lethal -4 and Mtb hypoxia inh growth -4.
Screening O=C1CC(N2CCN(c3ccc(F)cc3)CC2)C(=O)N1c1ccc(F)cc1 (stereo not drawn) returned Mtb hypoxia inh -5, PrP UTR inh -17, Sa RN4220 lethal 2.9, Bead autofluor 3441, ugtP null kill 6, BJeLR lethal -11 and Mtb hypoxia inh growth 12.
